High-throughput results deposited in PubChem BioAssay by several laboratories.
Beta2AR agonist: agonists of human beta-2 adrenergic receptor inducing internalization; Am2.2-beta2AR cells, FAP receptor internalization, flow cytometry; reference of the scale not given here; response, % (test concentration not listed); hit rate 0.43% among 340,000; AID 504454;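 active = response above a set limit, near 3 SD of response in nonfluorescent compounds, cut at about 42% in these data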;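 also: stock transfer was 100 nL into about 11 µL; a reference agonist was the positive control; negative values mostly stem from fluorescent compounds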
Target sequence (P07550 whole entry, looked up): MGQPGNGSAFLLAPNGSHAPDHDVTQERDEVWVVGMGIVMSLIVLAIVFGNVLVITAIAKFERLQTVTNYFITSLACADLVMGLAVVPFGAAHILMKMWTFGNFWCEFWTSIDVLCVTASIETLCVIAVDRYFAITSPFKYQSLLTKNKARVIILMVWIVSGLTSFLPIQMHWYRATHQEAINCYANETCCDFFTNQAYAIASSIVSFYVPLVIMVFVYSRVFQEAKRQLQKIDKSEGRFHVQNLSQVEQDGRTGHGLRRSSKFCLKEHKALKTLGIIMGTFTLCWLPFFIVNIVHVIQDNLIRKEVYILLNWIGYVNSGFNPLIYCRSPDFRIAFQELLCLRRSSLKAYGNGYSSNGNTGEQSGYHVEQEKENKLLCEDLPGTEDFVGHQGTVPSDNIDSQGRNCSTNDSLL
HNF4A DNA FP: change in binding of human HNF4 alpha to DNA. activity change, % at 10 µM. P41235. HNF4a-FITC DNA binding, fluorescence polarization, 1 h. AID 1224865. hit rate 0.3% among 360,000; in the data active = activity change above about 30%, passing the limit was not always enough;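 also: controls were the assay level and a saturating level of protein; the project sought stronger binding though the title names inhibitors; some compounds called inactive have numbers as strong as hits; positive values seem to mean higher polarization but the record does not say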
Target sequence (P41235 whole entry, looked up): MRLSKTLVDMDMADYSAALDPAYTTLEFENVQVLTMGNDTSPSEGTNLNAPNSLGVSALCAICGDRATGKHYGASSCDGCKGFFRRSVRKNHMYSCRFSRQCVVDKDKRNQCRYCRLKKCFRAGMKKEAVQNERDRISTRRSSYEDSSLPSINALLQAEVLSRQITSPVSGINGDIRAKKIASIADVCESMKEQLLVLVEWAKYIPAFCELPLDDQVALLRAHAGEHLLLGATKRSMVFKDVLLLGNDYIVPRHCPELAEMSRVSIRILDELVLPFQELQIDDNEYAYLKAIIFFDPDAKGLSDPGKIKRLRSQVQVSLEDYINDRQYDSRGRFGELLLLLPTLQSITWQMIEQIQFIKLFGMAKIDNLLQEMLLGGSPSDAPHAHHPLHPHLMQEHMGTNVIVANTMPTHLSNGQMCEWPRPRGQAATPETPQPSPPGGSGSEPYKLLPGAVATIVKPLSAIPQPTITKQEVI
A1 inh: inhibitors of the anti-apoptotic protein A1, read as caspase activation | MEF A1-2A-BIM cells, Caspase-Glo 3/7 luminescence, 3 h; percent of clofoctol response, vehicle zero | hit rate 0.066% among 330,000 | caspase activation, % (concentration not given with the values);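 active = over half of replicate activation scores above 10%, or exactly half above 10 with the replicate mean above 10; inconclusive = replicate mean below 10 yet half the replicates above 10; inactive = over half of replicates below 10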;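 also: wells of about 30 µL received 50 nL stock; many hits fall short of the cut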
UCH37 inh: human UCH37 deubiquitinating enzyme inhibition. Q9Y5K5. purified proteasome/UCH37, Ub-AMC cleavage fluorescence. inhibition, % (concentration not given with the values). hit rate 0.33% among 330,000;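 active = mean of two replicates above 20%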;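 also: 0% = compound-free wells with enzyme and 100% = wells lacking proteasome; stock transfer was 100 nL into about 20 µL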
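Signal – fluorescence, ex 355 nm, em 460 nm · System – Proteasome-bound UCH37 · Input – 0.15 nM proteasome as dispensed · Timing – 30 min preincubation with enzyme, 25 min cleavage at room temperature · Read-out basis – percent inhibition of cleavage signal versus uninhibited and no-proteasome wells · Medium – Tris-HCl pH 7.4 with ATP-MgCl2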
E coli growth: inhibitors of Escherichia coli growth; OD600, 23 h; hits give low values; OD600 absorbance (test concentration not listed); hit rate 0.21% among 330,000;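 active = OD600 absorbance below the run mean of sample wells minus 3.6 SD, in any replicate, cut at about 0.56 in these data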;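 also: stock transfer was 300 nL into about 60 µL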
Vif TR-FRET: inhibitors of Vif binding to APOBEC3G peptide, primary screen, biochemical, TR-FRET, GST-Vif 1-94, biotin-A3G peptide, dose response retest (AID 1117319); TR-FRET GST-Vif / biotin-A3G peptide binding; higher % means a stronger effect; test concentration not given here; strong numbers were not always called active; inhibition, %, or IC50 in µM where a hit was titrated; hit rate 0.57% among 260,000;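 active = above the screen mean plus three standard deviations and confirmed in dose response; inconclusive = results disagree or hit not tested in dose response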;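 also: Vif residues 1-94 fused to GST binding biotinylated APOBEC3G peptide 110-148; 0% = full assay without inhibitor and 100% = GST in place of GST-Vif; retest series ran down from 100 µM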
LANA-H2A inh: blocks KSHV LANA binding to histone H2A/H2B | hit rate 0.6% among 320,000 | inhibition, % (test concentration not listed) | Q9QR71 | cell-free LANA-H2A/H2B peptide, fluorescence polarization; in the data active = inhibition mostly above about 10%, no sharp cut-off; inactive = mostly below about 6.7%;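 also: stock transfer was 7.5 nL into about 10 µL; 0% = median of vehicle wells and 100% = median of positive control wells; one replicate is shown; the record names a cut of 25% in any replicate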
Numbers without * were called inactive; i = inactive; ? = inconclusive; . = no result given; & = joins results of further samples. Outcome played no part in choosing rows. Share with any hit: about 2.1%.

SMILES | Beta2AR agonist | HNF4A DNA FP | A1 inh | UCH37 inh | E coli growth | Vif TR-FRET | LANA-H2A inh
CCCCn1c(N)c(N(CC)C(=O)c2ccc(C)cc2)c(=O)[nH]c1=O | 4.2 | 1.1 | -0.2 | -0.2 | 0.692 | . | 1.0
CN(CC(=O)Nc1ccc(S(=O)(=O)N2CCCC2)cc1)CC(=O)Nc1ccc(F)c(F)c1F | -2.9 | 1.1 | 0.7 | 0.2 | 0.686 | -4.8% | 1.7
CCc1cc2c(=O)c(-c3nc(C)cs3)coc2cc1O | 5.7 | -1.0 | -5.6 | 3.8 | 0.688 | . | 2.1
COc1cc(C(c2c(C)[nH][nH]c2=O)c2c(C)[nH][nH]c2=O)ccc1OS(=O)(=O)c1ccccc1 | 4.2 | 3.4 | -0.1 | 4.8 | 0.612 | ? | 8.7
COc1ccccc1N1CCN(/N=C\c2cccnc2)CC1 | 1.5 | -0.7 | -0.4 | . | . | . | -14.4
CCOC(=O)CC(NC(=O)Cc1ccc(F)cc1)c1ccccc1Cl (stereo not drawn) | 9.8 | 0.9 | 1.3 | 1.1 | 0.668 | . | 0.6
Cn1c(N)c(C(=O)COC(=O)Cc2cccc(C(F)(F)F)c2)c(=O)n(C)c1=O | -1.9 | -0.7 | -0.9 | 2.1 | 0.701 | . | 0.9
COc1cc(SC)ccc1C(=O)NCCOc1ccc(C)c(C)c1 | -5.8 | -0.3 | -0.1 | 2.6 | 0.634 | -5.3% | -4.4
O=C(CSc1nnc(CNC(=O)c2ccc(F)cc2)o1)NCCc1ccccc1 | 6.3 | 1.4 | 0.3 | 0.6 | 0.644 | 14.6% | i
CCCNC(=O)NCc1ccc(N2CCCC2=O)cc1 | 0.5 | 1.9 | -0.8 | 5.1 | 0.67 | 0.2% | -1.2
CCOc1cccc(C(=O)N/N=C/c2ccoc2)c1 | -5.8 | -4.2 | 0.2 | . | . | . | -0.4
Cc1ccc(C(=O)NN2CCOCC2)cc1 | -1.6 | 4.9 | 0.2 | 6.4 | 0.667 | 6.2% | 1.4
CCNC(=O)/C(C#N)=C/c1c(N2CCOCC2)nc2ccccn2c1=O | 46.7* | 4.1 | -0.8 | -173.7 | 0.676 | 1.0% | 1.1
O=C(c1cccnc1)N1CCN(S(=O)(=O)c2ccc3ccccc3c2)CC1 | -5.1 | -1.7 | -0.5 | 2.8 | 0.668 | -2.3% | -0.4
CCOC(=O)Cn1c(S(=O)(=O)Cc2ccc(Cl)cc2)nc(-c2ccccc2)c1-c1ccccc1 | -2.1 | -1.2 | 1.0 | 1.5 | 0.754 | 3.1% | 7.1
CCn1cc(CN2CCC(n3nccc3NC(=O)c3ccccc3C)CC2)cn1 | 3.5 | -2.5 | 0.0 | 4.5 | 0.623 | . | 0.8
COc1ccc(/C=N/OC(=O)c2ccc(Cl)cc2)c(Cl)c1OC | 2.2 | -1.0 | -0.6 | . | . | . | 2.2
CC[C@]12c3[nH]c4cc(-c5ccco5)ccc4c3CCN1C(=O)[C@@H](CC(=O)NCC13CC4CC(CC(C4)C1)C3)C[C@@H]2C(=O)N1CCN(C(=O)C2CC2)CC1 | 15.1 | 2.4 | . | -11.6 | 0.693 | -0.5% | .
CC(=O)c1ccc(NS(=O)(=O)c2ccc(C(C)(C)C)cc2)cc1 | 9.0 | 1.4 | 1.4 | 2.6 | 0.688 | 4.1% | 1.1
N/C(Cc1ccc([N+](=O)[O-])cc1)=N\OC(=O)c1ccc2ccccc2c1 | 7.2 | 1.6 | -0.2 | . | . | -6.1% | -0.6
CCOc1ccc(NC(=O)CCC(=O)Nc2nnc(CC)s2)cc1 | -8.2 | -0.6 | 0.4 | 0.8 | 0.674 | . | 0.5
CCc1ccc(NC(=O)N(C2CCCCC2)C(C)c2cccnc2)cc1 (stereo not drawn) | 4.7 | 0.9 | -0.7 | 0.2 | 0.666 | 1.2% | 2.5
CCOC(=O)C(C)n1cnc2c(cnn2-c2ccc(Cl)cc2)c1=O (stereo not drawn) | 3.3 | -0.9 | 0.4 | -0.5 | 0.727 | 0.3% | -0.9
Cc1ccccc1C(=O)N1CCC(C(=O)Oc2ccc(C#N)cc2)CC1 | 1.9 | 1.5 | 0.2 | 2.0 | 0.678 | . | -0.4
COC(=O)c1sc(C(C)(C)C)cc1CS(=O)(=O)c1ccc(Cl)cc1 | 6.9 | 1.7 | -0.1 | 4.4 | 0.649 | 3.0% | -0.2

As entered above.
CC(=O)c1ccc(NS(=O)(=O)c2ccc(C(C)(C)C)cc2)cc1 in HNF4A DNA FP is entered as 1.4
CCn1cc(CN2CCC(n3nccc3NC(=O)c3ccccc3C)CC2)cn1 in A1 inh is entered as 0.0

Next section
SMILES | Beta2AR agonist | HNF4A DNA FP | A1 inh | UCH37 inh | E coli growth | Vif TR-FRET | LANA-H2A inh
Nc1ccn([C@H]2CC[C@@H](CO)O2)c(=O)n1 | -4.3 | 3.9 | -0.1 | 5.4 | . | -8.6%&-5.8% | 0.2
COC(=O)c1cc(C(=O)c2ccc(Cl)cc2Cl)cn1C | -3.5 | 2.7 | 1.6 | 4.6 | 0.652 | 9.7% | 4.8
CCCOc1ncnc2c1[nH]c1ccccc12 | -0.4 | 0.8 | 0.4 | -32.5 | 0.673 | 2.6% | 0.2
CN(C(=S)SCc1ccccc1)C1CCS(=O)(=O)C1 (stereo not drawn) | -13.8 | -3.5 | 0.5 | 3.5 | 0.678 | -14.5% | -7.8
O=C(NC1CC2CCC(C1)N2Cc1ccco1)c1ccccc1 (stereo not drawn) | -7.7 | -3.3 | 2.4 | 4.3 | 0.684 | -3.1% | 2.6
CCOC(=O)C(NC(=O)CC(C)C)(Nc1cc(C)on1)C(F)(F)F (stereo not drawn) | -6.3 | -2.5 | 0.7 | 1.6 | 0.737 | -5.5% | 2.6
C#CCOCCOCCOCCNc1nc(OC)nc(N2CCN(C(=O)[C@H](CCC(=O)O)n3cc(C(N)CO)nn3)CC2)n1 (stereo partly drawn) | 3.9 | -1.9 | -0.3 | 0.4 | . | . | 0.8
COc1ccc(C2=NN(C(=O)c3ccccc3)C(c3cccc([N+](=O)[O-])c3)C2)cc1 (stereo not drawn) | 4.9 | 4.5 | 0.1 | 5.7 | 0.7 | -1.9% | -3.2
CC1=CC(C)(C)N(C(=O)CN2C(=O)CCC2=O)c2ccc(C)cc21 | -8.4 | 1.5 | -0.1 | 5.5 | 0.724 | 7.3% | 0.0
O=S(=O)(/N=C(/Nc1cccnc1)c1ccccc1)c1ccc(F)cc1F | -7.9 | -0.7 | 0.1 | 0.8 | 0.665 | . | 0.0
O=C(NCCO)c1ccc2[nH]c3ccccc3c2c1 | 3.4 | -0.7 | -1.3 | -26.9 | 0.718 | 11.1% | -4.2
CCN(CC)C1CC(=O)N(c2cccc(Cl)c2)C1=O (stereo not drawn) | 5.8 | 7.2 | -0.4 | 2.5 | 0.662 | 2.5% | -5.8
COCCN1CCn2c(nc3cc(NC(=O)NC4CCCCC4)ccc32)C1 | 25.1 | 2.7 | -0.2 | -297.1 | 0.682 | 5.8% | 2.4
CSc1ccc(S(=O)(=O)N2CCC(C(=O)Nc3ccccc3C(F)(F)F)CC2)cc1 | 11.2 | -47.0 | 0.2 | -1.7 | 0.68 | . | -4.6
FC(F)Oc1ccc(-n2cc(-c3ccc(Cl)cc3)[n+]3c2CCCCC3)cc1 | 1.3 | -0.2 | -1.0 | 8.1 | 0.693 | 6.3% | -1.5
CC(NC(=O)C(NS(=O)(=O)c1cccc2nsnc12)C(C)C)c1ccccc1 (stereo not drawn) | -9.0 | -2.0 | 0.1 | 3.9 | 0.738 | . | 2.3
O=C(NCc1cccs1)Nc1cc(Cl)ccc1Cl | -8.8 | -2.9 | -0.6 | 7.1 | 0.651 | 3.7% | -4.2
COc1ccc(S(=O)(=O)Nc2ccc(-c3ccc(N4CCCC4)nn3)cc2)cc1C | 15.2 | 0.9 | 1.0 | 0.3 | 0.644 | -5.1% | 1.0
COc1ccccc1C(=O)N=c1sc2c(C)ccc(OC)c2n1C | 10.1 | -0.3 | -3.5 | -32.9 | 0.714 | -95.0% | -0.4
CC(C)Oc1ccc(CCC(=O)NNC(=S)Nc2ccccc2)cc1 | 3.6 | -2.8 | 0.0 | -0.7 | 0.646 | 6.4% | 1.1
Cc1c(C(=O)N2CCC(C(N)=O)CC2)sc(N)c1C#N | 6.5 | 3.9 | 0.6 | 0.8 | 0.71 | 13.9% | -2.5
CCCc1[nH]nc2c1C(c1ccc(OC)cc1OC)C(C#N)=C(N)O2 (stereo not drawn) | 6.8 | 0.9 | 0.0 | 2.9 | 0.746 | 7.5% | 1.4
COc1ccc(CNC(=O)CN2C(=O)CSc3ccc(S(=O)(=O)N4CCCCC4)cc32)cc1 | -1.0 | 2.2 | 0.0 | 4.5 | 0.674 | -1.0% | -2.9
CC(=O)Nc1ccc(C(=O)COC(=O)C2CC2C)c(F)c1 (stereo not drawn) | -3.5 | -4.1 | . | 3.3 | 0.717 | 4.1% | .
CCC(=O)Nc1ccc(OCc2nnc3c4ccccc4c(C)nn23)cc1 | -9.2 | 4.0 | 0.3 | 3.3 | 0.697 | -5.4% | 1.3
Next section
SMILES | Beta2AR agonist | HNF4A DNA FP | A1 inh | UCH37 inh | E coli growth | Vif TR-FRET | LANA-H2A inh
O=[N+]([O-])c1c(-c2cn[nH]c2)n[nH]c1-c1cn[nH]c1 | 1.7 | -1.1 | 0.4 | 6.3 | 0.685 | 26.7% | -4.3
Cc1ccc(C(=O)/C=C/NCc2ccc(F)cc2)cc1 | 8.1 | 4.4 | -0.9 | 7.3 | 0.706 | . | 7.2
COc1ccc2cc(C#N)c(NC(C)C)nc2c1 | 6.2 | 3.0 | 1.7 | -103.3 | 0.697 | 17.4% | 1.7
COc1ccc(-c2onc3ccc(C(C)=O)cc23)cc1 | 10.8 | -129.7 | -0.2 | . | . | 10.3% | 26.3*
O=C(NCC1CCCO1)C1CC(=O)N(c2cccc(Cl)c2)C1 (stereo not drawn) | -3.9 | 0.2 | 0.3 | 4.1 | 0.691 | -1.2% | 1.0
Cn1ccs/c1=N\C(=O)Nc1cccc(Cl)c1 | -5.2 | 8.3 | -4.7 | . | . | 18.1% | 7.3
COc1cc2c(cc1OC)C(COc1ccc(F)cc1)N(C(C)=O)CC2 (stereo not drawn) | 3.5 | -3.1 | 0.7 | 4.9 | 0.681 | 0.2% | 2.7
CCC1CCCCN1C(=O)CSc1nnc(CNC(=O)c2ccco2)o1 (stereo not drawn) | -7.3 | -5.8 | 2.0 | 0.4 | 0.723 | 14.6% | -3.8
O=C(/C(=C/O)N=Nc1ccccc1Cl)c1ccccc1 | 10.1 | 4.1 | 0.5 | 1.4 | . | 11.1% | -1.8
COC(=O)c1ccccc1NC(=O)c1sc(=S)n(C)c1N | -8.4 | -2.9 | -0.2 | 3.6 | 0.73 | -5.3% | -3.3
COC(=O)C1=C(C)NC2=C(C(=O)c3ccccc32)C1c1ccc(-c2ccc(C(=O)O)cc2)o1 (stereo not drawn) | -0.9 | 25.1 | 0.9 | 8.2 | 0.694 | 6.9% | 3.2
CC1=C(C(N)=O)C(c2ccc(Br)cc2)n2nc(CCCO)nc2N1 (stereo not drawn) | -10.0 | -2.5 | 0.3 | 3.4 | 0.683 | 6.6% | 15.8*
O=C1c2ccccc2NC(c2cccc(F)c2)N1Cc1ccccc1 (stereo not drawn) | 13.7 | -1.9 | -0.1 | -184.2 | 0.619 | 2.9% | 2.0
CCCOc1ccc(C(C)=O)cc1CSCCC#N | -2.0 | -0.9 | -0.3 | 3.3 | 0.717 | 22.7% | 3.8
